Compound activity from PubChem.
MenB inh: Mtb MenB enzyme inhibition | MenB enzyme assay, absorbance read-out; some hits fall short of the stated cut | inhibition, %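 (about 12 µg/mL by stock and volumes)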 | 0.43% of 100,000 active;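 active means mean of two replicates above 30%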;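 further: 0% = no compound and 100% = wells with inactive enzyme; the first replicate is given; strong numbers were not always called active; inactives centre near -10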
Target sequence (P9WNP5 whole entry, looked up): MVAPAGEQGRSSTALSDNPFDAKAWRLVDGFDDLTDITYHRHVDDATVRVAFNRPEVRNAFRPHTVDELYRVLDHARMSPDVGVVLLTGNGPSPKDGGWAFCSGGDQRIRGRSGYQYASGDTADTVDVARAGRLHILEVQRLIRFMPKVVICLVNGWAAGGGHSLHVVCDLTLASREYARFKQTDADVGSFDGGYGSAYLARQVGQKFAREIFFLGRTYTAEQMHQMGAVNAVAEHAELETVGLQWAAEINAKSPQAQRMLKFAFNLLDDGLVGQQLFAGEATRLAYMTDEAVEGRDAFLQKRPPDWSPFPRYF
Polio RdRp inh: poliovirus RNA polymerase inhibition; P03300; poliovirus polymerase elongation, fluorescence polarization; stronger effect = lower value; % elongation, % (compound at 16.7 µg/mL); 0.66% of 150,000 active; in the data active means % elongation below about 90%; further: some results filed as inactive read as strong as hits
Target sequence (P03300 1749-2209 limits assumed): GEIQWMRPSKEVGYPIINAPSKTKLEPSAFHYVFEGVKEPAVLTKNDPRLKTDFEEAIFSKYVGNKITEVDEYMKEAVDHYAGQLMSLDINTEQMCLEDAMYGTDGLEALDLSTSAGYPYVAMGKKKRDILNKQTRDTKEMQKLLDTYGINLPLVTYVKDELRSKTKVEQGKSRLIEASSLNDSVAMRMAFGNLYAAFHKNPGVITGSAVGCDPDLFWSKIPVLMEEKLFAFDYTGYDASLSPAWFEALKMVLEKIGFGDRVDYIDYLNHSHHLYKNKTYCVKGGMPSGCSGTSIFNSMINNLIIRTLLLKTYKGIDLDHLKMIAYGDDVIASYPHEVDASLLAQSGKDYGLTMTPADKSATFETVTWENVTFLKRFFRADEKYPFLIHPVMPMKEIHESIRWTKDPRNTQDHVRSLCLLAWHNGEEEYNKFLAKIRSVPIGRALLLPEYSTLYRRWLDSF
Mtb MbtI inh: inhibitors of Mycobacterium tuberculosis siderophore enzyme MbtI | P9WFX0 | purified MbtI enzyme, fluorescence intensity read-out | inhibition, %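 (about 17 µg/mL by stock and volumes)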 | 0.89% of 100,000 active;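 active means above 50% in both replicates, above 80% if mildly self-fluorescent; inactive means the rest, strongly fluorescent compounds included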;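 further: 0% = mean of negative and 100% = mean of positive controls; one replicate is shown; some compounds called inactive have numbers as strong as hits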
Polio RdRp inh intensity: further read-out of Polio RdRp inh, marked with its call; % elongation; measured here: total intensity read-out; formula for this scale not given here;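 total fluorescence in place of polarization; lower means less elongation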
* = called active by the depositor; i = inactive; . = not tested or not shown; & = joins results of further samples.

(1) CCC1=Nc2cc(C(=O)NCCN3CCCCCC3)ccc2Sc2ccc(C)cc21
(2) Cc1[nH]c(=O)[nH]c(=O)c1N
(3) Cc1sc2nc(CN3CCCC3)nc(NC(C)C)c2c1C
(4) c1ccc(OCCOc2ccccc2)cc1
(5) S=C(S)OC1CC2CC1C1CCCC21 (stereo not drawn)
(6) O=C(CSc1nc2ccccc2c(=O)n1CCCO)N1CCC(c2ccccc2)=N1
(7) COc1ccc(/C=C2/C(=O)NN=C2N)cc1
(8) CCn1c(Cc2ccccc2)nnc1SCC(=O)N1CCCCC1C (stereo not drawn)
entry no. | 1 | 2 | 3 | 4 | 5 | 6 | 7 | 8
MenB inh | -4 | -10 | -27 | 4 | 12 | -26 | 14 | 2
Polio RdRp inh | 102 | . | 104 | 88 | 100 | 96 | 105 | 100
Polio RdRp inh intensity | 102 | . | 101 | 90 | 99 | 102 | 103 | 102
Mtb MbtI inh | -5 | -1 | 0 | . | . | 3 | 18 | 2

(9) C/C(=C\c1ccccc1)CN1CCCN(C)CC1
(10) NC(=O)CSc1nc2cc(S(=O)(=O)N3CCOCC3)ccc2o1
(11) COc1ccc(C(C#N)N2N=C(C)CC2(C)C)cc1 (stereo not drawn)
(12) CCc1noc(C)c1C(=O)N1CCOCC1
(13) Cc1cc(S(=O)(=O)NC(C)C)ccc1OCC(=O)NC1CC1
(14) N[C@H](Cc1ccccc1)C(=O)O
(15) CCOC(=O)C1C(=O)Nc2nc(C)nn2C1c1ccccc1 (stereo not drawn)
(16) C=CCNc1ncnc2c1sc1nc(CCCC)c3c(c12)CCCC3
entry no. | 9 | 10 | 11 | 12 | 13 | 14 | 15 | 16
MenB inh | -1 | -14 | -25 | -2 | 10 | 5 | 5 | -6
Polio RdRp inh | 100 | 76* | 106 | 100 | 102 | 99 | 100 | 101
Polio RdRp inh intensity | 101 | 73* | 113 | 101 | 100 | 102 | 101 | 96
Mtb MbtI inh | -6 | 87 | . | -1 | -1 | -4 | -9 | 38

(17) O=C(NCCCN1CCOCC1)NC1(c2ccccc2)CC1
(18) CC(=O)N1C=Cc2ccccc2C1c1c[nH]c2ccccc12 (stereo not drawn)
(19) CC(Sc1n[nH]c(-c2cccs2)n1)C(=O)N1CCCC1 (stereo not drawn)
(20) CC(=O)SC1CCS(=O)(=O)C1 (stereo not drawn)
(21) Cc1cc(C(=O)Cn2cc(C(F)(F)F)ccc2=O)c(C)n1Cc1ccco1
(22) CCC1CCCCN1c1nc(C)cc(C)n1 (stereo not drawn)
(23) CCCN(CCC)C(=O)c1ccccc1Cl
(24) CCN(CC)C(=O)C1CCCN(C(=O)Nc2ccccc2)C1 (stereo not drawn)
entry no. | 17 | 18 | 19 | 20 | 21 | 22 | 23 | 24
MenB inh | 0 | -32 | -12 | . | -2 | . | -20 | -6
Polio RdRp inh | 107 | 102 | 102 | 105 | 107 | 104 | 107 | 101
Polio RdRp inh intensity | 110 | 101 | 97 | 98 | 109 | 103 | 114 | 102
Mtb MbtI inh | . | 2 | -3 | -1 | 9 | -2 | . | -11

(25) CN(C)C(=O)Oc1nnc(SCCS(=O)(=O)c2ccc(F)cc2)n1C1CC1
(26) Cc1cc(NC(=O)S(=O)(=O)c2ccccc2)ccc1NC(=O)c1ccco1
(27) OC(CN1CCN(c2cccc(Cl)c2)CC1)Cn1c2ccccc2c2ccccc21 (stereo not drawn)
(28) Cc1ccc(-c2ccc(=O)n(CC(=O)NC3CCCCC3C)n2)cc1 (stereo not drawn)
(29) CN(CCC#N)CC1Cc2ccccc2O1 (stereo not drawn)
(30) CN(C)C=Nc1cnn(-c2ccccc2)c(=O)c1Cl
(31) CCCn1c(=O)n(Cc2c(C)noc2C)c(=O)c2c1nc(C(F)(F)F)n2CCOC
(32) COc1cc2c(cc1O)C(C)=NC(C)(C)C2
entry no. | 25 | 26 | 27 | 28 | 29 | 30 | 31 | 32
MenB inh | -3 | -12 | -32 | -4 | 45* | -12 | 5 | -7
Polio RdRp inh | 102 | 101 | 102 | 101 | 103 | 103 | 97 | 104
Polio RdRp inh intensity | 100 | 103 | 101 | 98 | 101 | 105 | 103 | 106
Mtb MbtI inh | 2 | -18 | 23 | 86 | -1 | 15 | -7 | 4

Quoted at random: three entries already listed, in no set order.
(26) Cc1cc(NC(=O)S(=O)(=O)c2ccccc2)ccc1NC(=O)c1ccco1
(27) OC(CN1CCN(c2cccc(Cl)c2)CC1)Cn1c2ccccc2c2ccccc21 (stereo not drawn)
(29) CN(CCC#N)CC1Cc2ccccc2O1 (stereo not drawn)
entry no. | 26 | 27 | 29
MenB inh | -12 | -32 | 45*
Polio RdRp inh | 101 | 102 | 103
Polio RdRp inh intensity | 103 | 101 | 101
Mtb MbtI inh | -18 | 23 | -1

Additional results.
(33) CCCn1cc(SCC(=O)N2N=C(c3cccs3)CC2c2ccc(OC)cc2)c2ccccc21 (stereo not drawn)
(34) CCC(C)NC(=O)C1CCCN1S(=O)(=O)c1ccc2nc(-c3ccccc3)[nH]c2c1 (stereo not drawn)
(35) O=C(/C=C/c1cn(-c2ccccc2)nc1-c1cccs1)N1CCCC1
(36) Cc1nnc(Nc2ccc(C(N)=O)cc2)c2ccccc12
(37) CC(=O)NC1(c2ccc(C)cc2)CCN(CC(=O)NC2CC2)CC1
(38) CN(C)c1ccc(/C=c2\sc3c(C#N)cc(C(=O)c4ccccc4)n3c2=O)cc1
(39) O=C(N1CCN(c2ccccc2)CC1)N(c1ccccc1)c1ccccc1
(40) CC(=O)Nc1ccc(NC(=O)CNc2ccc(Br)cc2)cc1
entry no. | 33 | 34 | 35 | 36 | 37 | 38 | 39 | 40
MenB inh | -77 | -2 | -49 | -2 | -41 | 9 | -2 | -4
Polio RdRp inh | 102 | 103 | 101 | 104 | 101 | 40 | 99 | 108
Polio RdRp inh intensity | 105 | 107 | 101 | 98 | 103 | 239 | 107 | 104
Mtb MbtI inh | 9 | -9 | 50 | 17 | -17 | 11 | 9 | -6

(41) CCOc1ccc(NC2SC(=O)NC2=O)cc1 (stereo not drawn)
(42) Cn1nnnc1SC1CCCCN(C(=O)c2ccc(F)cc2)C1=O (stereo not drawn)
(43) N#Cc1ccccc1NC(=O)c1cccs1
(44) CCOc1ccc(C(=O)Nc2ccc(NC(=O)c3ccccc3)c(C)c2)cc1Br
(45) CCN(CC)c1ccc(/C=C(/C#N)C(=O)NC(C)C)o1
(46) CCOC(=O)Cn1c2c(c(C(F)(F)F)cc1=O)C(=O)CCC2
(47) CC(=O)Nc1ccc(C(=O)N2CCCC2)cc1
(48) Cc1ccc2oc(C(=O)Nc3ccc(C)c(C)c3)cc(=O)c2c1
entry no. | 41 | 42 | 43 | 44 | 45 | 46 | 47 | 48
MenB inh | -3 | 6 | -28 | -6 | -162 | 2 | -21 | -2
Polio RdRp inh | 101 | 102 | 101 | 103 | 77 | 108 | 102 | 100
Polio RdRp inh intensity | 102 | 98 | 105 | 100 | 193 | 102 | 101 | 105
Mtb MbtI inh | 10 | 22 | 8 | 7 | 4 | 4 | -2 | -6

(49) Cc1ccc2oc(=N)c3c(N)nc(-c4ccc5c(c4)OCO5)cc3c2c1
(50) CCN(CC)c1ccc(C(=O)Oc2ccc(C(=O)OC)cc2)cc1
(51) C=CCN1C(=O)C(CC(=O)Nc2ccc(OC)cc2)N(Cc2ccco2)C1=S (stereo not drawn)
(52) CC(C)NC(=O)c1ccccc1Sc1ccccc1
(53) CC(C)(C)c1ccc(C(O)CCCN2CCC(C(O)(c3ccccc3)c3ccccc3)CC2)cc1 (stereo not drawn)
(54) COCCCn1c(C)cc(C(=O)Cn2cnc3sc(-c4ccccc4)cc3c2=O)c1C
(55) CC(C)(C)CC(C)(C)NC(=O)c1cccc(N=Cc2ccccc2O)c1
(56) O=S(=O)(NCc1ccco1)c1cccc2cccnc12
entry no. | 49 | 50 | 51 | 52 | 53 | 54 | 55 | 56
MenB inh | -30 | -32 | -20 | 8 | -4 | 7 | -16 | -24
Polio RdRp inh | 111 | 109 | 102 | 100 | 101 | 105 | 108 | 99
Polio RdRp inh intensity | 105 | 97 | 102 | 102 | 103 | 97 | 100 | 102
Mtb MbtI inh | -11 | 0 | -9 | 16 | -6 | 4 | -3 | 3

Laid out differently: 3 of the compounds above.
cpd | Compound | MenB inh | Polio RdRp inh | Polio RdRp inh intensity | Mtb MbtI inh
51 | C=CCN1C(=O)C(CC(=O)Nc2ccc(OC)cc2)N(Cc2ccco2)C1=S (stereo not drawn) | -20 | 102 | 102 | -9
52 | CC(C)NC(=O)c1ccccc1Sc1ccccc1 | 8 | 100 | 102 | 16
53 | CC(C)(C)c1ccc(C(O)CCCN2CCC(C(O)(c3ccccc3)c3ccccc3)CC2)cc1 (stereo not drawn) | -4 | 101 | 103 | -6

Next part
(57) CCC(C(=O)NN1C(=O)c2ccccc2C1=O)c1ccccc1 (stereo not drawn)
(58) CN(C)CC(C)(C)Cn1c(=S)[nH]c2ccccc2c1=O
(59) CCn1c2ccccc2c2cc(CN3CCN(Cc4ccco4)CC3)ccc21
(60) Brc1ccc2c(c1)CN(C1CCCCC1)CO2
(61) COc1cccc(Nc2ccc(-n3ccnc3)nn2)c1
(62) Cc1cccc(NC(=O)CN2CCN(C(=O)c3cc(C4CC4)nn3-c3ccccc3)CC2)c1C
(63) Cc1ccsc1C(=O)N(CC(=O)Nc1ccccc1C(F)(F)F)Cc1ccco1
(64) N#CC(C#N)=C1C=C2C=C(N3CCCC3)CCC2CC1 (stereo not drawn)
entry no. | 57 | 58 | 59 | 60 | 61 | 62 | 63 | 64
MenB inh | -29 | 5 | 18 | -11 | 9 | -11 | 4 | -24
Polio RdRp inh | 102 | 100 | 100 | 101 | 103 | 97 | . | 44
Polio RdRp inh intensity | 104 | 104 | 102 | 108 | 103 | 101 | . | 245
Mtb MbtI inh | -17 | -11 | . | -13 | 16 | 6 | 8 | -8

(65) CCOC(=O)c1cc2c(=O)n3ccccc3nc2n(CC)c1=N
(66) O=C(c1cccc2c1C(=O)N(Cc1cccnc1)C2)N1CCN(Cc2ccccc2)CC1
(67) Cc1nc2c(C(=O)Nc3ccc(N4CCC(O)CC4)cc3)snc2c(=O)[nH]1
(68) O=C1C(C=NCCc2c[nH]c3ccccc23)=C(O)c2ccccc21
(69) CCCCN(S(C)(=O)=O)S(=O)(=O)c1ccc(OC)cc1
(70) O=C(Cc1ccccc1)NCCSCc1ccco1
(71) Cc1cc(C)cc(NS(=O)(=O)c2cn(C)c(=O)n(C)c2=O)c1
(72) O=c1[nH]c2ccc(NS(=O)(=O)Cc3ccccc3)cc2o1
entry no. | 65 | 66 | 67 | 68 | 69 | 70 | 71 | 72
MenB inh | -294 | -20 | -15 | -28 | -10 | 25 | 7 | 4
Polio RdRp inh | 104 | 104 | 101 | 101 | 98 | 101 | 101 | 100
Polio RdRp inh intensity | 104 | 103 | 101 | 99 | 92 | 99 | 101 | 103
Mtb MbtI inh | 117 | 2 | 7 | -2 | 2 | 25 | 10 | -8

(73) Fc1ccccc1N1CCN(c2ncnc3[nH]ncc23)CC1
(74) CCOc1ccc(N=C2C(=O)N(CN3CCCC(C)C3)c3ccccc32)cc1 (stereo not drawn)
(75) CCOc1cccc(C(=O)Nc2cc3nn(-c4ccccc4)nc3cc2C)c1
(76) CCOC(=O)c1ccc2c(c1)nc(C(C)C)n2CC
(77) Cc1conc1NC(c1cccs1)c1ccc2cccnc2c1O (stereo not drawn)
(78) COc1ccc(/C=N/NC(=O)c2cc3c(=O)n(C)c(=O)n(C)c3nc2C)cc1
(79) COc1cc(Nc2nc(SCC(=O)c3ccc(O)c(O)c3)nc3ccccc23)cc(OC)c1
(80) CN(C)Cc1ccc(O)c(CN(C)C)n1
entry no. | 73 | 74 | 75 | 76 | 77 | 78 | 79 | 80
MenB inh | 1 | -18 | -20 | -10 | -73 | 9 | -10 | -39
Polio RdRp inh | 101 | 105 | 103 | 103 | 118 | 101 | 107 | 101
Polio RdRp inh intensity | 106 | 102 | 107 | 116 | 139 | 102 | 104 | 99
Mtb MbtI inh | -18 | -9 | 4 | 46 | 97* | -3 | 36 | 1

(81) N#C/C(=C\C=C\c1ccccc1)C(N)=S
(82) O=S(=O)(CCN(Cc1cccs1)C(=S)Nc1cccc(F)c1)c1ccc(Cl)cc1
(83) CSc1nsc(SCC(=O)NC(C)CCc2ccccc2)n1 (stereo not drawn)
(84) N#CC(C#N)=NNc1ccc2c(c1)OCO2
(85) CCOC(=O)c1oc2ccccc2c1COC(=O)C1CSC2(C)CCC(=O)N12 (stereo not drawn)
(86) CCC(=O)N1CCN(c2ccc(NC(=O)COc3ccc(Cl)cc3Cl)cc2)CC1
(87) COC(=O)Cc1cc(=O)n(-c2ccccc2)[nH]1
(88) CCCn1c(NC(=O)c2ccc(OCc3c(C)noc3C)cc2)nc2ccccc21
entry no. | 81 | 82 | 83 | 84 | 85 | 86 | 87 | 88
MenB inh | -44 | -46 | -36 | i | -3 | -10 | -195&-148 | -38
Polio RdRp inh | 105 | 109 | 100 | 102 | 100 | 104 | 100&100 | 111
Polio RdRp inh intensity | 123 | 110 | 102 | 100 | 95 | 109 | 102&105 | 121
Mtb MbtI inh | 25 | -7 | -2 | 12 | 8 | . | -4&16 | 6

(89) CC(Sc1nc2ncccc2o1)C(=O)N(C)c1ccc(F)cc1 (stereo not drawn)
(90) CN(C)S(=O)(=O)c1cccc(COC(=O)C2=NN(c3ccccc3)C(=O)CC2)c1
(91) CC(C)=NOC(=O)c1scc(S(C)(=O)=O)c1Cl
(92) CC1CCC(NC(=O)N(CCCl)N=O)CC1 (stereo not drawn)
entry no. | 89 | 90 | 91 | 92
MenB inh | -2 | 1 | -14 | 3
Polio RdRp inh | 100 | 97 | 106 | 95
Polio RdRp inh intensity | 102 | 101 | 102 | 102
Mtb MbtI inh | 2 | -11 | 11 | -5
